ID4 binder = binders of human ID4 protein, primary screen, biochemical, small molecule microarray, single point. 31,000 tested, 1.2% active. Flag-ID4 binding, fluorescence F/B. calls only. DNA-binding protein inhibitor ID-4 (Homo sapiens), P47928;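 active means spot signal over background at p below 0.07 in all four prints; compounds were printed on slides so no solution concentration is given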;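 further: a binder raises fluorescence above local background on the spot; about 2 pmol printed per array spot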
Target sequence (P47928 whole entry, looked up): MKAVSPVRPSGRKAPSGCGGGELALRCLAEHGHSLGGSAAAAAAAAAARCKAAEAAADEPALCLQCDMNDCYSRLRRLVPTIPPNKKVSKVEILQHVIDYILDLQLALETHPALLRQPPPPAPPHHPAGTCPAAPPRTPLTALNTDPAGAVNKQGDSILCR
Calls only; i = inactive; + = active, no number. This is a subset; count on the stated rates, not on these rows.

SMILES	ID4 binder
Cc1ccc(NC(=O)CC2NCCNC2=O)cc1Cl (stereo not drawn)	i
COc1ccc(NC(=O)CSc2nc(O)cc(=O)n2-c2ccccc2)cc1	i
COc1ccc(OC)c(S(=O)(=O)Nc2cccnc2)c1	i
COc1ccc(C)cc1NC(=O)CN(c1cc(Cl)c(Cl)cc1Cl)S(C)(=O)=O	i
CC(=O)N(C)C[C@H]1Oc2ncc(-c3ccc(F)cc3)cc2C(=O)N([C@@H](C)CO)C[C@H]1C	i
COc1ccc(NC(=O)N(C)C[C@H]2Oc3cc(-c4cccc(C(=O)N(C)C)c4)ccc3S(=O)(=O)N([C@H](C)CO)C[C@H]2C)cc1	i
CC(=O)N[C@@H]1C=C[C@@H](CC(=O)NCc2ccc(Cl)cc2)O[C@H]1CO	i
CC(=O)N(C)C[C@H]1Oc2cc(C#CCN(C)C)ccc2S(=O)(=O)N([C@H](C)CO)C[C@@H]1C	i
C/C=C/c1ccc2c(c1)O[C@@H](CN(C)Cc1ccc(F)cc1)[C@H](C)CN([C@H](C)CO)S2(=O)=O	i
CCCN(C)C[C@H]1Oc2cc(C#CC3CCCC3)ccc2S(=O)(=O)N([C@H](C)CO)C[C@H]1C	i
COC(=O)c1cc(OC)c(OC)cc1NC(=O)COc1ccccc1	i
Cc1noc(C)c1NC(=O)N(C)C[C@@H]1Oc2cc(C#CCN(C)C)ccc2S(=O)(=O)N([C@@H](C)CO)C[C@H]1C	i
Cc1c(Cl)cccc1NC(=O)CN(c1ccc2c(c1)OCCO2)S(C)(=O)=O	i
CC1(C)CC(=O)C2=C(C1)N(Cc1ccco1)C(=O)C2(NC(=O)c1ccc(Cl)cc1Cl)C(F)(F)F (stereo not drawn)	i
COc1ccc(NC(=O)Nc2ccc3c(c2)[C@@H]2C[C@H](CC(=O)N4CCOCC4)O[C@@H](CO)[C@@H]2O3)cc1	i
CCC(=O)N(C)C[C@@H]1Oc2ncc(-c3ccc(C)cc3)cc2C(=O)N([C@H](C)CO)C[C@H]1C	i
COc1cccc(NC(=O)C(C)NS(=O)(=O)c2ccc(Cl)cc2)c1 (stereo not drawn)	i
CCN(CC(=O)Nc1cccc(OC)c1)S(=O)(=O)c1ccc(Cl)cc1	i
CN(C)CCCNC(=O)C[C@H]1CC[C@@H](NC(=O)Cc2cccnc2)[C@@H](CO)O1	i
CCCN(C)C[C@H]1Oc2cc(C#CC3CC3)ccc2S(=O)(=O)N([C@@H](C)CO)C[C@H]1C	i
Cc1ccc(C)c(NC(=O)Cn2cc(C(=O)C3CC3)c3ccccc32)c1	i
O=S(=O)(c1ccccc1)c1nc(-c2ccccc2Cl)oc1NCCN1CCOCC1	i
O=C(CN1C(=O)c2ccccc2S1(=O)=O)Nc1ccc(F)c(F)c1	i
Cc1ccc(NC(=O)c2ccc(NCc3ccco3)c([N+](=O)[O-])c2)cc1Cl	i
CC(=O)Nc1cccc(OC(=O)c2ccoc2C)c1	i
Cn1c(SCC(=O)Nc2ccc(I)cc2)nnc1-c1cc2ccccc2o1	i
CCc1ccc(CCC(=O)Nc2ccc(C)c(C)c2)o1	i
CN1CCN(C(=O)C[C@H]2CC[C@@H](NC(=O)c3ccc4c(c3)OCO4)[C@H](CO)O2)CC1	i
COc1ccccc1CNC(=O)C[C@H]1C[C@H]2c3cc(NS(C)(=O)=O)ccc3O[C@H]2[C@H](CO)O1	i
C[C@@H]1CN([C@H](C)CO)C(=O)c2cc(C3=CCCC3)cnc2O[C@@H]1CN(C)Cc1ccccn1	i
CS(=O)(=O)N(CC(=O)Nc1ccc(F)c(F)c1)c1cccc(Cl)c1	i
CCNc1nc(SCC(N)=O)nc(N2CCOCC2)n1	i
Cc1ccc(Cl)c(OCC(=O)Nc2sc(C)c(C)c2C(N)=O)c1	i
COCC(=O)N(C)C[C@H]1Oc2cc(-c3cccc(F)c3)ccc2S(=O)(=O)N([C@H](C)CO)C[C@@H]1C	i
Cc1ccccc1NC(=O)CC(C(=O)O)N1CCOCC1 (stereo not drawn)	i
COc1ccc(S(=O)(=O)Nc2c(C)nc3nc[nH]n3c2=O)cc1	i
CC(=O)N[C@H]1CC[C@H](CC(=O)NCC2CCCCC2)O[C@@H]1CO	i
C[C@H](CO)N1C[C@H](C)[C@H](CN(C)C(=O)CN(C)C)Oc2cc(C#C[C@@H](C)O)ccc2S1(=O)=O	i
C[C@H]1CN([C@@H](C)CO)C(=O)c2cc(C#Cc3cccc(F)c3)cnc2O[C@@H]1CN(C)CC1CCCC1	i
C[C@@H]1CN([C@H](C)CO)C(=O)c2cc(Br)cnc2O[C@H]1CN(C)Cc1cccnc1	i
C[C@@H]1CN([C@H](C)CO)C(=O)c2cc(/C=C/c3ccccc3)cnc2O[C@H]1CN(C)C(=O)C1CC1	i
COc1ccc(C)cc1NC(=O)CN(c1cccc(F)c1)S(C)(=O)=O	i
COc1ccc(S(=O)(=O)N(C)CC(=O)Nc2cc([N+](=O)[O-])ccc2C)cc1C	i
C[C@H]1CN([C@@H](C)CO)S(=O)(=O)c2ccc(-c3cccnc3)cc2O[C@H]1CN(C)CC1CC1	i
CCCN(C)C[C@@H]1OCCCC[C@@H](C)Oc2ccc(N(C)C)cc2C(=O)N([C@H](C)CO)C[C@@H]1C	i

Fetched one by one from the list above, 4 records:
SMILES	ID4 binder
C[C@H](CO)N1C[C@H](C)[C@H](CN(C)C(=O)CN(C)C)Oc2cc(C#C[C@@H](C)O)ccc2S1(=O)=O	i
COc1ccc(S(=O)(=O)Nc2c(C)nc3nc[nH]n3c2=O)cc1	i
CC(=O)N[C@H]1CC[C@H](CC(=O)NCC2CCCCC2)O[C@@H]1CO	i
CCNc1nc(SCC(N)=O)nc(N2CCOCC2)n1	i

The listing continues.
SMILES	ID4 binder
COc1cccc(OC)c1OCCNCC1COc2ccccc2O1 (stereo not drawn)	i
O=C(CCCN1C(=O)c2ccccc2C1=O)Nc1ccc(F)c(Cl)c1	i
COC(=O)c1ccccc1NC(=O)CSc1nnc(-c2ccccc2)o1	i
COCC(=O)N(C)C[C@@H]1Oc2cc(C#CC3CCCC3)ccc2S(=O)(=O)N([C@H](C)CO)C[C@@H]1C	i
CNC[C@@H]1Oc2cc(C#CC3CCCC3)ccc2S(=O)(=O)N([C@H](C)CO)C[C@H]1C	i
CC(=O)c1ccc(NC(=O)CNS(=O)(=O)c2ccc(C(C)(C)C)cc2)cc1	i
COC(=O)c1csc(S(=O)(=O)N=S(C)(=O)c2cccs2)c1OC (stereo not drawn)	i
CN(C)C(=O)C[C@@H]1CC[C@@H](NC(=O)C2CC2)[C@@H](CO)O1	i
Cc1ccccc1C(=O)Nc1cccc(NC(=O)COc2cc(C)c(Cl)c(C)c2)c1	i
COc1ccc(OC(C)C(=O)Nc2ccc(C(N)=O)cc2)cc1 (stereo not drawn)	i
CS(=O)(=O)N(CC(=O)Nc1cc(C(F)(F)F)ccc1Cl)c1ccc2c(c1)OCCO2	i
O=C(COc1ccccc1[N+](=O)[O-])Nc1ccc2oc(-c3ccc(Cl)cc3Cl)nc2c1	i
C[C@@H]1CN([C@H](C)CO)C(=O)c2cc(C3=CCCC3)cnc2O[C@@H]1CN(C)C(=O)NC1CCCC1	i
COc1ccc([N+](=O)[O-])cc1NC(=O)CCN1CCN(c2ccccc2OC)CC1	i
CCC(=O)N(C)C[C@H]1Oc2ncc(C3=CCCC3)cc2C(=O)N([C@@H](C)CO)C[C@@H]1C	i

In the list so far, these have an aryl thioether with sulfur outside any ring.
SMILES	ID4 binder
COc1ccc(NC(=O)CSc2nc(O)cc(=O)n2-c2ccccc2)cc1	i
Cn1c(SCC(=O)Nc2ccc(I)cc2)nnc1-c1cc2ccccc2o1	i
CCNc1nc(SCC(N)=O)nc(N2CCOCC2)n1	i
COC(=O)c1ccccc1NC(=O)CSc1nnc(-c2ccccc2)o1	i

Other results.
SMILES	ID4 binder
O=C(NCCN1CCN(C(=O)c2cccc(Br)c2)CC1)C(=O)Nc1ccc(F)cc1	i
COc1ccc(S(=O)(=O)N(CC(=O)Nc2ccccc2)C2CCCCC2)cc1Cl	i
CCCC#Cc1cnc2c(c1)C(=O)N([C@@H](C)CO)C[C@H](C)[C@@H](CN(C)C)O2	i
C[C@@H]1CN([C@@H](C)CO)C(=O)c2cc(-c3ccc(F)cc3)cnc2O[C@@H]1CN(C)CC1CCCCC1	i
CCC(=O)N1CCN(c2ccc(Cl)cc2NC(=O)COc2cc(C)cc(C)c2)CC1	i
C[C@@H]1CN([C@@H](C)CO)S(=O)(=O)c2ccc(C#CCC3CCCC3)cc2O[C@H]1CN(C)C(=O)c1cnccn1	i
O=C(C[C@@H]1CC[C@@H](NC(=O)c2cccc(F)c2)[C@@H](CO)O1)NCc1ccc(Oc2ccccc2)cc1	i
COc1cc2cc3c4cc(OC)c(OC)cc4cc[n+]3c(C)c2cc1OC	i
CN(c1cccc(NS(=O)(=O)c2ccc3c(c2)OCCO3)c1)S(C)(=O)=O	i
Cn1c(=O)c2[nH]c(C3CCCC3)nc2n(C)c1=O	i
C[C@H](CO)N1C[C@H](C)[C@@H](CN(C)C(=O)C2CCOCC2)Oc2cc(-c3ccc(F)cc3)ccc2S1(=O)=O	i
Cc1cc(C)c(NC(=O)CSc2nc3ccc(NC(=O)c4ccccc4Cl)cc3s2)c(C)c1	i
CCc1cc(C(=O)OC)c(NC(=S)Nc2cn(CC)nc2C(N)=O)s1	i
C[C@H](NC(=O)C[C@@H]1CC[C@@H](NC(=O)CN2CCOCC2)[C@@H](CO)O1)c1ccccc1	i
CC(C)C#Cc1cnc2c(c1)C(=O)N([C@H](C)CO)C[C@@H](C)[C@H](CN(C)Cc1ccccc1F)O2	i
CN(C)c1ccc2c(c1)[C@H]1C[C@H](CC(=O)NCC3CC3)O[C@@H](CO)[C@H]1O2	i
COc1ccc(NC(=O)c2ccco2)cc1NC(=O)c1cc(OC)c(OC)c(OC)c1	i
C[C@@H](NC(=O)C[C@H]1C[C@@H]2c3cc(N(C)C)ccc3O[C@@H]2[C@H](CO)O1)c1ccccc1	i
COC(=O)c1c(C)[nH]c(C)c1C(=O)c1ccccc1Cc1ccccc1	i
CCCN(C)C[C@@H]1OCc2cnnn2CCCC(=O)N([C@H](C)CO)C[C@@H]1C	i
O=c1c2ccccc2nc(CSc2nnc(-c3ccco3)n2-c2ccccc2)n1-c1ccccc1Cl	i
COc1cc(NC(=S)NCc2cccnc2)c(OC)cc1Cl	i
Cc1ccc(-c2nc3ccccc3s2)cc1NC(=O)COc1ccc(Cl)cc1	i
CN(Cc1nc(-c2ccncc2)no1)S(=O)(=O)c1ccccc1	i
C[C@H]1CN([C@@H](C)CO)S(=O)(=O)c2ccc(C#CCN(C)C)cc2O[C@H]1CN(C)Cc1ccc(F)cc1	i
Cc1ccc([N+](=O)[O-])cc1NC(=O)CN(C)S(=O)(=O)c1ccc(Cl)cc1	i
O=C(O)CSc1nc2cc(N3CCOCC3)c(F)cc2[nH]1	i
C[C@@H]1CN([C@@H](C)CO)S(=O)(=O)c2ccc(C#CC3CCCC3)cc2O[C@H]1CN(C)C(=O)Nc1cc(F)ccc1F	i
Cc1cc(=O)[nH]c(SCCCOc2ccccc2-c2ccccc2)n1	i
Cc1cc(OCC(=O)Nc2cccc3ncccc23)cc(C)c1Cl	i
COc1ccc2c(=O)ccoc2c1	i
CCN(CC)CCNc1ncnc2c1sc1nc(N3CCCC3)c3c(c12)CC(C)(C)OC3	i
O=C(CCn1cnc2ccccc2c1=O)Nc1cccc(Cl)c1	i
COc1cccc(C(=O)c2oc3ccccc3c2NC(=O)COc2ccccc2)c1	i
Cc1cccc(C(=O)Nc2cccc(OCC(=O)O)c2)c1	i
CN(C)c1ccc2c(c1)[C@@H]1C[C@H](CC(=O)O)O[C@H](CO)[C@@H]1O2	i
O=C(CCc1nc(-c2ccc(Cl)cc2)no1)N1CCOCC1	i
C[C@H]1CN([C@@H](C)CO)C(=O)c2cc(C#CC3CCCCC3)cnc2O[C@@H]1CN(C)C	i
C[C@@H]1CN([C@H](C)CO)C(=O)c2cc(/C=C/c3ccccc3)cnc2O[C@H]1CN(C)C(=O)c1ccccc1	i
C[C@@H]1CN([C@@H](C)CO)C(=O)c2cc(C#Cc3cccnc3)cnc2O[C@@H]1CN(C)Cc1ccncc1	+
COc1ccccc1-c1ccc2c(c1)O[C@H](CN(C)CC1CC1)[C@H](C)CN([C@@H](C)CO)S2(=O)=O	i
O=C(CN1CCOCC1)Nc1ccc([N+](=O)[O-])cc1C(=O)Nc1ccccc1F	i
C[C@@H]1CN([C@H](C)CO)C(=O)c2cc(-c3ccc(C#N)cc3)cnc2O[C@@H]1CN(C)CC1CC1	i
COC(=O)CC1C(=O)NCCN1C(=S)Nc1cccc(OC)c1 (stereo not drawn)	i
O=S(=O)(N[C@@H]1CCN(Cc2ccc(OCCO)cc2)C1)c1cccc2cccnc12	i
CO[C@@H](CN(C)S(=O)(=O)c1ccc(C)cc1)[C@@H](C)CN(Cc1ccccc1Cl)[C@H](C)CO	i
Cc1ccc(NC(=O)c2ccc(CN3CCN(C)CC3)cc2)cc1Nc1nccc(-c2cccnc2)n1	i
COc1cccc(-c2nnc(SCC(=O)Nc3cccc([N+](=O)[O-])c3)n2C)c1	i
Nc1ncnc2c1c(I)cn2C1OC(CO)C(O)C1O (stereo not drawn)	i
CC1(C)CC[C@]2(C(=O)O)CC[C@]3(C)C(=CCC4[C@@]5(C)C[C@@H](O)[C@H](O)C(CO)(CO)C5CC[C@]43C)C2[C@@H]1O (stereo partly drawn)	i
CO[C@@H](CN(C)Cc1cc(F)ccc1F)[C@H](C)CN([C@@H](C)CO)S(=O)(=O)c1ccc(F)cc1	i

Molecules above with bromine, in the order listed:
SMILES	ID4 binder
C[C@@H]1CN([C@H](C)CO)C(=O)c2cc(Br)cnc2O[C@H]1CN(C)Cc1cccnc1	i
O=C(NCCN1CCN(C(=O)c2cccc(Br)c2)CC1)C(=O)Nc1ccc(F)cc1	i

Compound activity deposited in PubChem BioAssay by Broad Institute.
